Bioassay records as filed in PubChem BioAssay.
PABP polyA inh: blocks human PABP binding to poly(A) RNA | P11940 | fluorescence polarization | inhibition, % at 35 µM | 290,000 tested, 1% active | AID 2014;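 active = 50% or more with normal probe brightness, or confirmed in later tests; inconclusive = above 50% with abnormal brightness, or retests that disagree; inactive = below 50% or failed in later tests; about a fifth of its hits are not listed in these tables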;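 note: calls also rest on retests at 20 µM and on dose response follow-up; controls were probe without protein and protein plus probe with vehicle; some compounds called inactive have numbers as strong as hits; many hits fall short of the cut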
Target sequence (P11940 whole entry, looked up): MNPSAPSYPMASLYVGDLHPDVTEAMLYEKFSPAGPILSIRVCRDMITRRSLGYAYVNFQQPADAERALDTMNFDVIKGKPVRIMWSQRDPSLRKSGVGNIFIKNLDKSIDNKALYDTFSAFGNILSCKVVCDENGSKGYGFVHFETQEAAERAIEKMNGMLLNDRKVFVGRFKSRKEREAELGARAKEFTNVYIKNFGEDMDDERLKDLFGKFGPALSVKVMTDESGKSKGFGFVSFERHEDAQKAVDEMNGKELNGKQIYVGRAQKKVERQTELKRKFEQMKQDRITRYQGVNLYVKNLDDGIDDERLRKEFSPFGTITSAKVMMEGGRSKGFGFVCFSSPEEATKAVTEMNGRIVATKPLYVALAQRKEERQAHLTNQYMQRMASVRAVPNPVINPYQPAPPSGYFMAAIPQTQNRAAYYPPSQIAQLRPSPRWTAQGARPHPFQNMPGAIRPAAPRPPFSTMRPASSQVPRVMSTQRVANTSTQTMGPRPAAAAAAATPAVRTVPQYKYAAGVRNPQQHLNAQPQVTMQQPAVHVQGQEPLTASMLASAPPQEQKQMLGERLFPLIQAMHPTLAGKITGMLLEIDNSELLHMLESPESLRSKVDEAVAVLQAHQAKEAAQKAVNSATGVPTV
eIF4H inh: inhibitors of RNA binding by human eIF4H. inhibition, % at 35 µM. eIF4H fluorescence polarization binding assay. AID 2012. Q15056. 290,000 tested, 0.94% active;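 active = 50% or more with normal probe brightness, or confirmed in later tests; inconclusive = above 50% with abnormal brightness, or retests that disagree; inactive = below 50% or failed in later tests; about a fifth of its hits are not listed in these tables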;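 note: calls also rest on retests at 20 µM and on dose response follow-up; 0% = protein and probe with vehicle and 100% = probe without protein; strong numbers were not always called active; many hits fall short of the cut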
CSC inhib: blocks cancer stem cells; cancer stem cell-like cells viability, luminescence; inhibition, % at 7.5 µM; 300,000 tested, 1.1% active; AID 2717;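 active = mean at 75% or more and at least half the replicates too; inconclusive = mean and replicates disagree; tested in HMLE shEcad cells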;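 note: 0% = median of negative and 100% = median of positive control wells; the first replicate is given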
HIV Env fusion: inhibitors of HIV Env-mediated cell fusion; HeLa-JRFL Env/CEM21 cell fusion, luciferase; inhibition, % at 12.3 µM; 360,000 tested, 1.1% active; AID 651610;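 active = mean replicate inhibition score of at least 50 and every replicate individually at or above 50; inconclusive = only one of the two criteria met; inactive = mean below 50 and not all replicates reaching 50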;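 note: 0% = plate neutral controls and 100% = maraviroc near 300 nM; one replicate is shown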
Yeast UUG start: modulators of start codon recognition fidelity in yeast; S. cerevisiae UUG-firefly luciferase reporter, luminescence/redox ratio; activity score, % at 18.7 µM; 350,000 tested, 0.13% active;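 active = replicate mean at a twofold rise or more, about +100% in these data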;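 note: firefly luciferase made from a UUG start codon reports start codon fidelity; reporter light over untreated wells divided by growth signal over untreated wells; some hits fall short of that in this replicate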
Rce1 inh: inhibitors of yeast Ras-converting enzyme. calls only. yeast membranes, quenched prenylated peptide cleavage fluorescence. 290,000 tested, 0.27% active;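 active = fall in fluorescence gain of 50% or more versus controls, with final raw signal at or below 3038400; inconclusive = same 50% fall but final raw signal above 3038400; inactive = fall in fluorescence gain under 50%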;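 note: plate controls were neutral control wells for no effect and wells lacking membranes for full effect; tested at 10 µM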
MT1-MMP act inh: inhibitors of human MT1-MMP activation; P50281; HT1080 RFP-PRO-GFP cells, GFP/RFP ratio fluorescence, overnight; percent of plate control window, DMSO zero; GFP/RFP ratio change, % at 20 µM; 360,000 tested, 0.061% active;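 active = GFP/RFP ratio change of at least 30% with cell ATP level not reduced by more than half and red fluorescence within 50% of control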; note: strong numbers were not always called active
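Assay system: HT1080 RFP-PRO-GFP cells. Benchmarks: DMSO vehicle wells and RFP-L50D-GFP reporter cell wells. Times: overnight cell settling, then overnight compound exposure, 37 °C, 5% CO2. Compound: 20 µM single dose, 1% DMSO. Read-out basis: GFP/RFP fluorescence ratio.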
eIF4H inh retest: further read-out of eIF4H inh, marked with its call; inhibition, %; compound at 20 µM; confirmation average;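 mean of two retest wells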
PABP polyA inh retest: recorded beside PABP polyA inh, whose call it bears; inhibition, %; compound at 20 µM; confirmation repeats;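 mean of two retest wells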
MT1-MMP act inh RFP: recorded beside MT1-MMP act inh, whose call it bears; RFP signal change, %; measured here: RFP expression control read;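 0 = vehicle wells; hits needed this value within 50% of zero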
An asterisk follows results filed as active. Only part of the results is shown, so the mix of outcomes need not match the whole.

`Cc1noc(C)c1COc1ccccc1C(=O)NCCOc1ccccc1F` gave CSC inhib 0, Yeast UUG start 1, MT1-MMP act inh 0 and MT1-MMP act inh RFP -1.
For S=C(Nc1cccnc1)N1CCN(c2ccccc2Cl)CC1 the results were PABP polyA inh -1, eIF4H inh 11, CSC inhib -10, HIV Env fusion 15, Rce1 inh inactive, MT1-MMP act inh -2 and MT1-MMP act inh RFP -4.
`Cc1cc(N2CCN(C)CC2)nc2ccc(NC(=S)N3CCN(c4ccc(Cl)cc4)CC3)cc12` gave PABP polyA inh 3, eIF4H inh 32, CSC inhib 109*, HIV Env fusion 10, Yeast UUG start -28, Rce1 inh inactive, MT1-MMP act inh 2 and MT1-MMP act inh RFP 4.
`N/C(=N\OC(=O)Cc1ccccc1[N+](=O)[O-])c1cccnc1` gave PABP polyA inh 4, eIF4H inh 7, CSC inhib 8, HIV Env fusion 12, Rce1 inh inactive, MT1-MMP act inh 1 and MT1-MMP act inh RFP -1.
Screening O=C(COC(=O)c1ccc([N+](=O)[O-])o1)Nc1ccc(F)cc1 returned CSC inhib -7, HIV Env fusion 4, Yeast UUG start 9, MT1-MMP act inh -1 and MT1-MMP act inh RFP 1.
CC1CN(C(=O)N2CCCCC2)CCN1C(=O)N1CCCCC1 (configuration not stated) was read as PABP polyA inh -6, eIF4H inh 0, CSC inhib -2, HIV Env fusion 1, Rce1 inh inactive, MT1-MMP act inh 4 and MT1-MMP act inh RFP 5.
For CC(C)(C)N/N=C/c1cc(Cl)cc([N+](=O)[O-])c1O the results were PABP polyA inh -3, eIF4H inh 4, CSC inhib -14, HIV Env fusion -11, Rce1 inh inactive, MT1-MMP act inh 3 and MT1-MMP act inh RFP -2.
`Cc1cccc(NNC(=O)C2CCC2)c1` gave PABP polyA inh 1, eIF4H inh -9, CSC inhib 16, HIV Env fusion 4, Rce1 inh inactive, MT1-MMP act inh 4 and MT1-MMP act inh RFP 5.
Screening Cc1nn(CC(=O)Nc2ccccn2)c(C)c1[N+](=O)[O-] returned PABP polyA inh 4, eIF4H inh 0, CSC inhib 12, Yeast UUG start -17, Rce1 inh inactive, MT1-MMP act inh 4 and MT1-MMP act inh RFP 2.
Screening CCOC(=O)Cn1nc(C)n(-c2ccc(Br)cc2)c1=O returned PABP polyA inh -2, eIF4H inh 4, CSC inhib -2, HIV Env fusion 5, Rce1 inh inactive, MT1-MMP act inh 4 and MT1-MMP act inh RFP 2.
CCN(C(=O)CSc1nnnn1-c1ccc(OC)cc1)C1CCS(=O)(=O)C1 (configuration not stated) was read as CSC inhib -12, HIV Env fusion 4, Yeast UUG start -3, MT1-MMP act inh 1 and MT1-MMP act inh RFP 2.
COc1ccccc1N1CCN(C(=O)/C=C/c2ccccc2)CC1 was read as PABP polyA inh 9, eIF4H inh -11, CSC inhib 1, HIV Env fusion -4, Yeast UUG start -11, Rce1 inh inactive, MT1-MMP act inh -2 and MT1-MMP act inh RFP 4.
`CNc1ccc(-c2cccc([N+](=O)[O-])c2)cn1` gave HIV Env fusion -100, Yeast UUG start -8, MT1-MMP act inh 4 and MT1-MMP act inh RFP 3.
Screening CCN(CC)c1nc2n(c(=O)n1)CCN2CC returned PABP polyA inh -5, eIF4H inh -9, CSC inhib -7, HIV Env fusion -18, Yeast UUG start -11, Rce1 inh inactive, MT1-MMP act inh 1 and MT1-MMP act inh RFP 5.
For Cc1ccc(C(=O)Nc2ccc(S(=O)(=O)N3CCc4ccccc4C3)cc2)o1 the results were PABP polyA inh -5, eIF4H inh -14, CSC inhib 5, HIV Env fusion 13, Yeast UUG start -9, Rce1 inh inactive, MT1-MMP act inh 3 and MT1-MMP act inh RFP -5.
`COc1ccc(NC(=O)CNC(=O)Cc2cccc3ccccc23)c(OC)c1` gave CSC inhib -7, HIV Env fusion 0, Yeast UUG start -6, Rce1 inh inactive, MT1-MMP act inh -5 and MT1-MMP act inh RFP -1.
Screening COc1cccc(/C=C/C(=O)N2CCN(S(=O)(=O)c3ccccc3)CC2)c1 returned HIV Env fusion 27, Yeast UUG start -6, MT1-MMP act inh 1 and MT1-MMP act inh RFP 3.
For Cn1c(CN2CCOCC2)nnc1SCc1ccccc1 the results were PABP polyA inh -6, eIF4H inh -9, CSC inhib -6, HIV Env fusion 5, Yeast UUG start -9, Rce1 inh inactive, MT1-MMP act inh 3 and MT1-MMP act inh RFP -2.
`CC(C)OCCCNC(=O)NC(=O)c1ccc(Cl)cc1` gave PABP polyA inh 8, eIF4H inh -9, CSC inhib -9, HIV Env fusion -18, Rce1 inh inactive, MT1-MMP act inh 1 and MT1-MMP act inh RFP -8.
CCN(CC(=O)Nc1ccccc1C(F)(F)F)C(=O)C1CSC2(C)CCC(=O)N12 (configuration not stated) was read as CSC inhib -14, HIV Env fusion -14, Rce1 inh inactive, MT1-MMP act inh 5 and MT1-MMP act inh RFP 9.
`Cc1ccc(CCNC(=O)C23CN(Cc4ccccc4)CC2C(c2cccc([N+](=O)[O-])c2)=NO3)cc1` (configuration not stated) gave PABP polyA inh 4, eIF4H inh 3, CSC inhib -5, HIV Env fusion 3, Yeast UUG start -3, Rce1 inh inactive, MT1-MMP act inh -5 and MT1-MMP act inh RFP -5.
COc1ccc(C2/C(=C(/O)c3ccc4c(c3)CC(C)O4)C(=O)C(=O)N2Cc2ccncc2)cc1 (configuration not stated) was read as PABP polyA inh 5, eIF4H inh -14, CSC inhib -9, HIV Env fusion -4, Yeast UUG start -17, Rce1 inh inactive, MT1-MMP act inh -4 and MT1-MMP act inh RFP -1.
Screening N#CCSc1nc2[nH]ncc2c(=O)n1-c1ccccc1Br returned PABP polyA inh -2, eIF4H inh -2, CSC inhib 1, HIV Env fusion -66, Yeast UUG start -8 and Rce1 inh inactive.
For O=C(C(=O)N1CCN(c2ccc(F)cc2)CC1)c1cn(CC(=O)N2CCOCC2)c2ccccc12 the results were PABP polyA inh 2, eIF4H inh -17, CSC inhib -3, HIV Env fusion 7, Yeast UUG start 3, Rce1 inh inactive, MT1-MMP act inh 4 and MT1-MMP act inh RFP 5.

An excerpt from above in order of SMILES length, low to high.
`Cc1cccc(NNC(=O)C2CCC2)c1` gave PABP polyA inh 1, eIF4H inh -9, CSC inhib 16, HIV Env fusion 4, Rce1 inh inactive, MT1-MMP act inh 4 and MT1-MMP act inh RFP 5.
CC1CN(C(=O)N2CCCCC2)CCN1C(=O)N1CCCCC1 (configuration not stated) was read as PABP polyA inh -6, eIF4H inh 0, CSC inhib -2, HIV Env fusion 1, Rce1 inh inactive, MT1-MMP act inh 4 and MT1-MMP act inh RFP 5.
For O=C(C(=O)N1CCN(c2ccc(F)cc2)CC1)c1cn(CC(=O)N2CCOCC2)c2ccccc12 the results were PABP polyA inh 2, eIF4H inh -17, CSC inhib -3, HIV Env fusion 7, Yeast UUG start 3, Rce1 inh inactive, MT1-MMP act inh 4 and MT1-MMP act inh RFP 5.

Next part:
CC(C)(C)c1ccc(S(=O)(=O)/N=C2\C=C(NS(=O)(=O)c3ccccc3)C(=O)c3ccccc32)cc1 was read as PABP polyA inh 24, eIF4H inh 64, CSC inhib -23, HIV Env fusion 29, Yeast UUG start -11, Rce1 inh inactive, MT1-MMP act inh 10, eIF4H inh retest 30, PABP polyA inh retest 19 and MT1-MMP act inh RFP 1.
Screening CCOc1ccc2nc(NC(=O)c3ccoc3C)sc2c1 returned PABP polyA inh 5, eIF4H inh 1, CSC inhib -18, Yeast UUG start -51, Rce1 inh inactive, MT1-MMP act inh -2 and MT1-MMP act inh RFP -6.
`Cc1ccc(CNCC(=O)Nc2ccc(N3CCOCC3)cc2)cc1` gave PABP polyA inh 6, eIF4H inh 9, CSC inhib -12, HIV Env fusion 9, Yeast UUG start 13, Rce1 inh inactive, MT1-MMP act inh -2 and MT1-MMP act inh RFP -4.
`O=C(CSCc1nc2ccccc2[nH]1)Nc1ccc2ccccc2c1` gave PABP polyA inh 7, eIF4H inh -4, CSC inhib -5, HIV Env fusion 71*, Yeast UUG start -15, Rce1 inh inactive, MT1-MMP act inh 5 and MT1-MMP act inh RFP 3.
`O=C(Nc1ncn[nH]1)c1ccc(Cl)cc1Cl` gave PABP polyA inh 16, eIF4H inh -13, CSC inhib -5, HIV Env fusion -12, Rce1 inh inactive, MT1-MMP act inh 1 and MT1-MMP act inh RFP 2.
`CCOC(=O)C1CCN(S(=O)(=O)c2ccc(OC)c(OC)c2)CC1` gave PABP polyA inh 14, eIF4H inh -6, CSC inhib -3, Yeast UUG start -3, Rce1 inh inactive, MT1-MMP act inh -2 and MT1-MMP act inh RFP -5.
For COc1ccc(C2=NS(=O)(=O)N(C)C(C(=O)Nc3ccc(OC)c(OC)c3)=C2)cc1 the results were PABP polyA inh 0, eIF4H inh -3, CSC inhib -4, Yeast UUG start -10, Rce1 inh inactive, MT1-MMP act inh 3 and MT1-MMP act inh RFP -11.
Screening O=C(OCC(=O)N1CCN(C(=O)c2ccco2)CC1)c1cn(-c2ccccc2)nc1-c1ccccc1 returned PABP polyA inh 3, eIF4H inh 4, CSC inhib -16, Yeast UUG start -28, Rce1 inh inactive, MT1-MMP act inh 4 and MT1-MMP act inh RFP -5.
Screening CN(C)C(CNc1ccc([N+](=O)[O-])cc1C#N)c1ccccc1 (configuration not stated) returned PABP polyA inh 5, eIF4H inh -9, CSC inhib 3, HIV Env fusion 8, Rce1 inh inactive, MT1-MMP act inh -2 and MT1-MMP act inh RFP 1.
N=c1c(C(=O)NCc2ccc3c(c2)OCO3)cc2c(=O)n3ccccc3nc2n1Cc1cccnc1 was read as PABP polyA inh 4, eIF4H inh 43, CSC inhib -5, HIV Env fusion -18, Yeast UUG start -10, Rce1 inh inactive, MT1-MMP act inh -9 and MT1-MMP act inh RFP -3.
Screening CC1=CC=CC2=NC(=O)CC(C)(C(=O)O)N12 (configuration not stated) returned PABP polyA inh 6, eIF4H inh 6, CSC inhib -5, HIV Env fusion 5, Yeast UUG start -22, Rce1 inh inconclusive, MT1-MMP act inh -3 and MT1-MMP act inh RFP 4.
`CCCn1cnc2c(oc3ccccc32)c1=O` gave PABP polyA inh 5, eIF4H inh 6, CSC inhib 4, HIV Env fusion -3, Yeast UUG start -21, Rce1 inh inactive, MT1-MMP act inh 1 and MT1-MMP act inh RFP 1.
For O=C(/C=C/c1ccccc1Cl)c1ccc[nH]1 the results were PABP polyA inh -12, eIF4H inh 9, CSC inhib 17, HIV Env fusion -38, Rce1 inh inactive, MT1-MMP act inh -11 and MT1-MMP act inh RFP -13.
For CCc1cccc(CC)c1NC(=S)NCc1ccc2[nH]c(C)cc2c1 the results were PABP polyA inh -3, eIF4H inh -4, CSC inhib 32, HIV Env fusion -50, Yeast UUG start -39, Rce1 inh inactive, MT1-MMP act inh 10 and MT1-MMP act inh RFP 0.
`COc1ccc(C(=O)NCCSc2ccccc2)cc1` gave PABP polyA inh -5, eIF4H inh 2, HIV Env fusion -3, Rce1 inh inactive, MT1-MMP act inh 1 and MT1-MMP act inh RFP 3.

Pulled by structure from above (2):
For COc1ccc(C2=NS(=O)(=O)N(C)C(C(=O)Nc3ccc(OC)c(OC)c3)=C2)cc1 the results were PABP polyA inh 0, eIF4H inh -3, CSC inhib -4, Yeast UUG start -10, Rce1 inh inactive, MT1-MMP act inh 3 and MT1-MMP act inh RFP -11.
Screening CCOC(=O)Cn1nc(C)n(-c2ccc(Br)cc2)c1=O returned PABP polyA inh -2, eIF4H inh 4, CSC inhib -2, HIV Env fusion 5, Rce1 inh inactive, MT1-MMP act inh 4 and MT1-MMP act inh RFP 2.
